HPGD block = inhibitors of human 15-hydroxyprostaglandin dehydrogenase (HPGD); P15428; hit rate 4.3% among 150,000; purified HPGD, NADH fluorescence kinetic, PGE2 substrate; Potency, µM, for the others: at the top dose activity change, negative = inhibition, usual class: inhibitors; active = well fitted inhibition curve with a large enough effect (not every such curve was filed as active); inconclusive = small, poorly fitted or top-dose-only effect, or another doubt; inactive = no such curve, though single readings can be large or run the other way;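 further: top concentration of the series not given in the record; plate controls included wells without enzyme; inactives centre near -10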
Target sequence (P15428 whole entry, looked up): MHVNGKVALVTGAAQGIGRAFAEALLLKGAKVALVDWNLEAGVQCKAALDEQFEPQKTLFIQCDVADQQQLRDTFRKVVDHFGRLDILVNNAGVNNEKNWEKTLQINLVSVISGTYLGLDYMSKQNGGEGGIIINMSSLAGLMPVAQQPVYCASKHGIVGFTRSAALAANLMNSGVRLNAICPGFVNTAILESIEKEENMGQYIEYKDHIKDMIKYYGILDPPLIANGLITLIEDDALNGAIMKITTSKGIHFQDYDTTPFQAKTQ
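NADH formation kinetics: reaction with 30 uM PGE2 and 1 mM NAD+ (final), 20 nM enzyme, Tris-HCl pH 8 with Tween 20, after 15 min compound preincubation at room temperature. Fluorescence change, last versus first of five reads.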
* marks the source's active call; other numbers are inactive results. On the % scale 0 is the no-effect control and ±100 the full control effect; potency means the concentration at half of the fitted maximal effect.

`O=C(NC(=S)N(Cc1ccccc1)Cc1ccccc1)c1ccccc1F` gave HPGD block -1%.
Screening O=C(NCCCN1CCOCC1)c1cc2ccccc2oc1=O returned HPGD block inconclusive.
For COc1cc2c(cc1OC)C(c1ccccc1)N(C(=O)c1ccco1)CC2 (stereo not given) the results were HPGD block inconclusive.
`O=C(NC1CCCCCC1)C1C2C=CC3(CN(Cc4cccnc4)C(=O)C13)O2` (stereo not given) gave HPGD block -2%.
For CCOC(=O)N1CCN(C(=O)C2CCN(Cc3ccc(OC)cc3OC)CC2)CC1 the results were HPGD block -11%.
`CCCn1c2ccc(/C(C)=N\O)cc2c2cc(/C(C)=N/O)ccc21` gave HPGD block inconclusive.
Screening COc1ccc(NC(=O)c2ccccc2SC)cc1OC returned HPGD block -3%.
For CCCNS(=O)(=O)c1ccc(CCC(=O)N2CCN(c3ccc(F)cc3)CC2)cc1 the results were HPGD block -3%.
CC1=CC(C)(C)Nc2ccc(OC(=O)C(Cc3ccccc3)N3C(=O)c4ccccc4C3=O)cc21 (stereo not given) was read as HPGD block -12%.
O=C(NCc1ccco1)/C(=C/c1cccc(C(F)(F)F)c1)c1nc2ccccc2[nH]1 was read as HPGD block inconclusive.
NC(=O)CN1C(=O)C2C3c4ccccc4C(c4ccccc43)C2C1=O (stereo not given) was read as HPGD block -1%.
For N#Cc1cccc(N=Cc2c(O)ccc3ccccc23)c1 the results were HPGD block inconclusive.
For CCn1c(SCC(=O)c2ccc(C)cc2)nnc1-c1ccoc1C the results were HPGD block 32µM*.
Screening CC1CCCC(NC(=O)COC(=O)/C=C/c2ccc3c(c2)OCO3)C1C (stereo not given) returned HPGD block inconclusive.
O=C(N/N=C1\CCCc2ccccc21)c1ccccc1[N+](=O)[O-] was read as HPGD block -7%.
Screening O=C(N/N=C/c1ccc(O)c(O)c1)C1c2ccccc2Oc2ccccc21 returned HPGD block -17%.
Cc1cccc(C(=O)NC(=S)NNC(=O)Cc2ccccc2)c1 was read as HPGD block -18%.
`CCCn1c(CCC(=O)O)ccc1-c1ccc(OC)cc1` gave HPGD block inconclusive.
`Cc1ccc(-n2c(=O)[nH]c3cc(C(=O)NC4CCN(Cc5ccccc5)CC4)ccc3c2=O)cc1` gave HPGD block -4%.
Screening O=[N+]([O-])c1ccc(Cl)cc1Cl returned HPGD block -2%.
Cc1ccc(S(=O)(=O)N(C)CC(=O)Nc2ccncc2)cc1 was read as HPGD block -10%.
Screening COc1cccc(CN2CCCC(C(=O)N3CCCCC3)C2)c1OC (stereo not given) returned HPGD block -12%.
COc1cc(/C=C2\SC(c3ccc(C)cc3)=NC2=O)cc(OC)c1O was read as HPGD block 22µM*.
Cc1ccc(C)c(N2C(=O)c3ccc(C(=O)OCC(=O)c4c(N)n(C)c(=O)n(C)c4=O)cc3C2=O)c1 was read as HPGD block -19%.
`COc1cccc(OCc2nnc(SCC(=O)N3c4ccccc4Sc4ccc(Cl)cc43)o2)c1` gave HPGD block -20%.
CC1=C(C#N)C(c2ccccc2)C2=C(N1)c1ccccc1C2=O (stereo not given) was read as HPGD block 22µM*.
For O=C(CCN1C(=O)C2CC=CCC2C1=O)N1CCN(c2ccccn2)CC1 (stereo not given) the results were HPGD block inconclusive.
For Cc1cc(NC(=O)CN2CCC(O)(c3cccc(F)c3)CC2)no1 the results were HPGD block -4%.
For COc1ccc(-n2nc3ccccc3n2)cc1 the results were HPGD block -29%.
Screening COc1ccc(-c2nnc(CSc3nnc(-c4ccncc4)n3C3CCCCC3)o2)cc1OC returned HPGD block -23%.

Retrieved by compound from above (5):
Cc1ccc(C)c(N2C(=O)c3ccc(C(=O)OCC(=O)c4c(N)n(C)c(=O)n(C)c4=O)cc3C2=O)c1 was read as HPGD block -19%.
Screening COc1ccc(-c2nnc(CSc3nnc(-c4ccncc4)n3C3CCCCC3)o2)cc1OC returned HPGD block -23%.
COc1cc(/C=C2\SC(c3ccc(C)cc3)=NC2=O)cc(OC)c1O was read as HPGD block 22µM*.
For COc1ccc(-n2nc3ccccc3n2)cc1 the results were HPGD block -29%.
`COc1cccc(OCc2nnc(SCC(=O)N3c4ccccc4Sc4ccc(Cl)cc43)o2)c1` gave HPGD block -20%.

The list continues:
`COC(=O)[C@@]1(Cc2ccc(F)cc2)[C@H]2c3cc(C(=O)N(C)C)n(Cc4ccc(C(F)(F)F)nc4)c3C[C@H]2CN1C(=O)c1ccccc1` gave HPGD block -14%.
`CNc1c(C(=O)O)ccc2c1C(=O)c1ccccc1C2=O` gave HPGD block -14%.
CCCOC(=O)CCNc1n[nH]c(=O)[nH]c1=O was read as HPGD block -15%.
`Cc1ccc2nc(SCC(=O)Nc3cccc(S(=O)(=O)N(C)C)c3)[nH]c2c1` gave HPGD block -14%.
CCC(C)NC(=O)CSc1nnc(-c2ccc(C(C)(C)C)cc2)n1C (stereo not given) was read as HPGD block -4%.
Screening Cn1c(=O)oc2cc(S(=O)(=O)NCCC(=O)N3CCc4ccccc43)ccc21 returned HPGD block -4%.
For CN(CC(=O)NCc1ccco1)S(=O)(=O)c1cccc2cccnc12 the results were HPGD block -3%.
COc1cccc2c1C(=O)C=C(C)C2=O was read as HPGD block -5%.
For Cc1ccc(C)c(N(C)S(=O)(=O)c2cccc3nsnc23)c1 the results were HPGD block -7%.
For O=C(Nc1cccc(Cl)c1)N(CCCN1CCOCC1)Cc1ccccc1F the results were HPGD block -14%.
For CCOC(=O)/C=C1\Nc2ccccc2OC1=O the results were HPGD block 4%.
For CCN(CC)c1ccc(C2C(C(=O)OC)=C(C)NC(C)=C2C(=O)OC)cc1 the results were HPGD block inconclusive.
CCOP(=O)(c1ccccc1)c1nc(-c2ccccc2C)oc1N1CCCCC1 (stereo not given) was read as HPGD block -17%.
For FC(F)(F)c1ccc(/C=N/N2CCN(Cc3ccccc3)CC2)cc1 the results were HPGD block 1%.
Screening CCOC(=O)c1cccc(NC(=O)CNS(=O)(=O)c2cccs2)c1 returned HPGD block -10%.
`CC1CCCN(CCC(=O)Nc2ccc(Br)cc2)C1` (stereo not given) gave HPGD block 5%.
Screening CC(OC(=O)c1snc(C(=O)NC2CCCCC2)c1N)C(=O)NC(C)(C)C (stereo not given) returned HPGD block inconclusive.
`CCn1nc(C(=O)N[C@@H](CCSC)c2nc3ccccc3[nH]2)c2ccccc2c1=O` gave HPGD block -6%.
Screening COc1ccc(C(c2nnnn2C2CCCCC2)N2CCN(c3ccccc3F)CC2)cc1 (stereo not given) returned HPGD block -16%.
Screening c1ccc(C2c3c(ccc4ccccc34)Oc3ncn4nc(-c5ccco5)nc4c32)cc1 (stereo not given) returned HPGD block inconclusive.

Grouped by structure, the entries above containing a nitro group on carbon
O=C(N/N=C1\CCCc2ccccc21)c1ccccc1[N+](=O)[O-] was read as HPGD block -7%.
Screening O=[N+]([O-])c1ccc(Cl)cc1Cl returned HPGD block -2%.

Carrying on:
For CCOc1ccc(NC(=O)CS(=O)CC(=O)NC2CCCc3ccccc32)cc1 (stereo not given) the results were HPGD block -6%.
Cc1ccc(NC(=O)CN2CCc3ccccc3C2)cc1S(=O)(=O)N1CCOCC1 was read as HPGD block -7%.
Screening CC(=O)Nc1ccc(S(=O)(=O)Nc2nc3ccccc3nc2Sc2nncn2C)cc1 returned HPGD block inconclusive.
`Cc1ccc(CN(C(=O)c2cc3ccccc3oc2=O)C2CCS(=O)(=O)C2)cc1` (stereo not given) gave HPGD block -22%.
COc1ccccc1NC(=O)CN1CCN(Cc2ccccc2)CC1 was read as HPGD block 2%.
For Cc1ccc(-c2nn(-c3ccccc3)cc2/C=N/NC(=O)CSc2nnc(C)n2-c2ccccc2)cc1 the results were HPGD block -6%.
COc1ccccc1NC(=S)NNC(=O)c1nn(C)c(C)c1Cl was read as HPGD block -8%.
CCOC(=O)C1CCCN(C(=O)/C=C/c2ccc([N+](=O)[O-])cc2)C1 (stereo not given) was read as HPGD block -17%.
`CCOC(=O)c1ccc(NC(=O)COc2ccc(S(=O)(=O)NC(C)CC)cc2)cc1` (stereo not given) gave HPGD block -10%.
O=C(Cn1nnc(-c2ccccc2F)n1)Nc1ccc(C(=O)N2CCOCC2)cc1 was read as HPGD block 40µM*.
For O=c1[nH]c(CN2CCN(c3ccccc3O)CC2)nc2ccccc12 the results were HPGD block -10%.
For CC(C)CN1CCC2(CC1)CCN(C(=O)c1ccco1)CC2 the results were HPGD block -12%.
Screening O=C(c1cc2ccccc2oc1=O)N(Cc1ccccc1)C1CCS(=O)(=O)C1 (stereo not given) returned HPGD block -16%.
Screening Cc1ccc(Nc2nc(Nc3ccc(C)cc3)nc(SC3=NCCS3)n2)cc1 returned HPGD block -10%.
`COc1ccc(OCC(=O)Nc2cccc3cccnc23)cc1` gave HPGD block inconclusive.
`O=C(/C=C/c1cccc([N+](=O)[O-])c1)Nc1ccc(NC(=O)c2cccs2)cc1` gave HPGD block -19%.
`Cc1nn(CCC(=O)NNC(=S)Nc2ccccc2)c(C)c1Br` gave HPGD block -11%.
Cc1cc(S(=O)(=O)N2CCCC2C(=O)N2CCOCC2)c(C)cc1Cl (stereo not given) was read as HPGD block -1%.
Screening Cc1ccccc1Nc1nnc(C)c(=O)[nH]1 returned HPGD block -8%.
Cc1cc(C)nc(N(C#N)Cc2cccc3ccccc23)n1 was read as HPGD block inconclusive.

Structures from the list above that have a tert-butyl group, in the order listed:
CCC(C)NC(=O)CSc1nnc(-c2ccc(C(C)(C)C)cc2)n1C (stereo not given) was read as HPGD block -4%.
Screening CC(OC(=O)c1snc(C(=O)NC2CCCCC2)c1N)C(=O)NC(C)(C)C (stereo not given) returned HPGD block inconclusive.

(list continues)
`CC(=O)Nc1ccc(S(=O)(=O)NCCc2csc(C)n2)cc1` gave HPGD block -12%.
Screening O=C(O)c1cscc1Cc1cccs1 returned HPGD block -11%.
For C=CCSc1nnc2c(n1)[nH]c1c(C)cccc12 the results were HPGD block 16µM*.
Screening CC(=O)C1=C(C)NC(C)=C(C(C)=O)C1c1cn(-c2ccccc2)nc1-c1cccs1 returned HPGD block -17%.
For COc1ccccc1-n1c(SCC(=O)N2CCc3ccccc32)nc2c(c1=O)SCC2 the results were HPGD block -21%.
Screening COc1cc(C(=O)OCC(=O)Nc2cc(-c3cc(C)c(C)cc3C)nn2-c2ccccc2)cc(OC)c1OC returned HPGD block -4%.
Screening CCOC(=O)c1cn2nc(-c3ccc(OCC)cc3)cc2nc1C1CCN(C(=O)OC(C)(C)C)CC1 returned HPGD block inconclusive.
For O=C(CN1CCC(NC(=O)c2ccccc2F)CC1)NCc1ccc(F)cc1 the results were HPGD block -8%.
`Cc1ccc(C(=O)CSc2nc3ccccc3c(=O)[nH]2)cc1` gave HPGD block inconclusive.
For O=C(O)CCCCCCNS(=O)(=O)c1ccccc1 the results were HPGD block -17%.
Screening O=c1c(O)c(-c2ccc3c(c2)OCO3)oc2ccccc12 returned HPGD block -23%.
Screening COC(=O)Cn1nc(-c2ccccc2)c2cc(Cl)ccc21 returned HPGD block -3%.
`CCOc1ncccc1C(=O)OCC(=O)c1ccc[nH]1` gave HPGD block -3%.
For O=C(c1ccncc1)N1CCC2(CC1)CN(c1cccc(-c3ccccc3)c1)C2 the results were HPGD block inconclusive.
`O=C(NC1=NCCS1)C1CC2CCC1C2` (stereo not given) gave HPGD block -27%.
Screening N#Cc1ccc(-c2ccc(Cl)cc2)nc1Oc1ccc(F)cc1 returned HPGD block inconclusive.
Screening CSC1=NCCN1C(=O)Cc1ccc(F)cc1 returned HPGD block -4%.
Screening CC(=O)N1c2c(cc(Br)cc2S(=O)(=O)N2CCOCC2)CC1C (stereo not given) returned HPGD block -5%.
For COc1cccc(-c2ccc(-c3noc(-c4cccs4)n3)c(OC)n2)c1 the results were HPGD block inconclusive.
CCCCCCCCCCCCCCCC(=O)OC(CC(=O)O)C[N+](C)(C)C (stereo not given) was read as HPGD block -2%.
Screening CN(C)S(=O)(=O)c1cccc(-c2nnc(SCc3cc(Cl)cc4c3OCOC4)n2N)c1 returned HPGD block 7.1µM*.
`CCCN(CCC)CCCNC(=O)CS(=O)Cc1nc(-c2ccc(OC)c(OC)c2)oc1C` (stereo not given) gave HPGD block -21%.
N=c1c(C(=O)NCc2ccco2)cc2c(=O)n3ccccc3nc2n1Cc1ccc(Cl)cc1 was read as HPGD block inconclusive.
CCOC(=O)CN1C(=O)C2(OCCCO2)c2ccccc21 was read as HPGD block -11%.
Cn1nc(-c2ccccc2)c2nc3ccccc3nc21 was read as HPGD block -14%.
Screening CCCCCCNS(=O)(=O)c1ccc(NC(=O)C2CCCO2)cc1 (stereo not given) returned HPGD block -10%.
Screening CN1CCN(CCNC(=O)Nc2ccccc2C(F)(F)F)CC1 returned HPGD block -11%.
For Cc1cc(C)c2c(N)c(S(=O)(=O)Cc3ccccc3)sc2n1 the results were HPGD block 22µM*.
CCCC[C@@H]1C[C@H]1C(NC(=O)c1cccs1)c1ccc(C(F)(F)F)cc1 (stereo not given in full) was read as HPGD block -26%.
CCOC(=O)c1cnn(-c2nc(SC)nc3sc4c(c23)CCCC4)c1N was read as HPGD block -10%.
Screening COc1cccc(S(=O)(=O)NCc2ccc(C(=O)Nc3ccc(Cl)cc3)cc2)c1 returned HPGD block -10%.
For Cc1ccc(N(CCCCN2C(=O)c3ccccc3C2=O)C(=O)c2ccc(Cl)s2)cc1 the results were HPGD block -8%.
O=C(O)C(O)[C@@](O)(Cc1ccc(O)cc1)C(=O)O (stereo not given in full) was read as HPGD block -11%.

Compound activity as filed in PubChem BioAssay.

Not all compounds are listed (hit frequency here may not be typical).
